# NOMO-1 viab = STK33 inhibitor candidate reducing NOMO-1 cell viability | AID 2330 | 7.5% of 37,000 active | NOMO-1 AML viability, CellTiter-Glo luminescence, 72 h | inhibition, % (no concentration beside the values);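 active = most replicates above 80%; inconclusive = exactly half above 80%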;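 also: wells of about 30 µL received 25 nL stock; 0% = median of vehicle wells and 100% = reference inhibitor level; the first replicate is given; inactives centre near 10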
# The depositor's hits bear a star; ? = inconclusive. Not all compounds are listed; count on the stated rates, not on these rows.
# Start of the listing, in advance, 4 compounds:
compound,NOMO-1 viab
COC(=O)Cc1c(C)c2cc(Cl)c(OC(C)C(C)=O)cc2oc1=O (stereo unspecified),-15
Cc1noc(C)c1NC(=O)Nc1cccc2c1O[C@H](CN(C)CC1CC1)[C@H](C)CN([C@H](C)CO)C2=O,2
Cc1noc(C)c1NC(=O)Nc1cccc2c1O[C@@H](CN(C)CC1CC1)[C@H](C)CN([C@@H](C)CO)C2=O,-7
C[C@H](CO)N1C[C@H](C)[C@H](CN(C)Cc2ccc(C(F)(F)F)cc2)Oc2ccc(NC(=O)C3CC3)cc2CC1=O,34

# All compounds of this part, from the first entry:
compound,NOMO-1 viab
COC(=O)Cc1c(C)c2cc(Cl)c(OC(C)C(C)=O)cc2oc1=O (stereo unspecified),-15
Cc1noc(C)c1NC(=O)Nc1cccc2c1O[C@H](CN(C)CC1CC1)[C@H](C)CN([C@H](C)CO)C2=O,2
Cc1noc(C)c1NC(=O)Nc1cccc2c1O[C@@H](CN(C)CC1CC1)[C@H](C)CN([C@@H](C)CO)C2=O,-7
C[C@H](CO)N1C[C@H](C)[C@H](CN(C)Cc2ccc(C(F)(F)F)cc2)Oc2ccc(NC(=O)C3CC3)cc2CC1=O,34
O=C(NCCc1ccccc1)N1c2ccccc2Sc2ccccc21,52
COc1ccc(NC(=O)Nc2ccc3c(c2)C(=O)N([C@@H](C)CO)C[C@H](C)[C@H](CN(C)C(=O)NC2CCCCC2)O3)cc1,14
C[C@@H]1CN([C@H](C)CO)C(=O)Cc2cc(NC(=O)c3ccncc3)ccc2O[C@@H]1CN(C)Cc1ccc(-c2ccccc2)cc1,73
Cc1c(C#N)c(SCc2cccc(C(F)(F)F)c2)nc2ccccc12,-16
C[C@@H]1CN([C@H](C)CO)C(=O)c2cc(NS(=O)(=O)c3ccccc3)ccc2O[C@H]1CN(C)S(=O)(=O)c1ccccc1,46
C[C@@H]1CN([C@H](C)CO)C(=O)Cc2cc(NC(=O)C3CCCCC3)ccc2O[C@H]1CN(C)Cc1ccccc1,16
COc1ccc(NC(=O)Nc2ccc3c(c2)C(=O)N([C@@H](C)CO)C[C@H](C)[C@@H](CN(C)C)O3)cc1,8
CC(C)NC(=O)Nc1ccc2c(c1)C(=O)N([C@H](C)CO)C[C@@H](C)[C@@H](CN(C)Cc1ccccc1)O2,-4
C[C@H](NC[C@H](O)CP(=O)(O)CC1CCCCC1)c1ccc(Cl)c(Cl)c1,31
C[C@@H]1CN([C@H](C)CO)C(=O)Cc2cc(NS(=O)(=O)c3cn(C)cn3)ccc2O[C@H]1CN(C)S(=O)(=O)c1ccc(F)cc1,-5
CCC(Oc1cccc(NC(=O)c2ccc([N+](=O)[O-])cc2)c1)C(=O)c1ccccc1 (stereo unspecified),35
Cc1[nH]n(-c2ccccc2)c(=O)c1Cc1c(Cl)cccc1Cl,24
CC(C)NC(=O)N(C)C[C@H]1Oc2c(NC(=O)C3CCCCC3)cccc2C(=O)N([C@H](C)CO)C[C@H]1C,-5
C[C@H](CO)N1C[C@H](C)[C@@H](CN(C)Cc2ccc(C(=O)O)cc2)Oc2c(NC(=O)Nc3ccc4c(c3)OCO4)cccc2C1=O,11
CC(C)NC(=O)N(C)C[C@@H]1Oc2ccc(NS(C)(=O)=O)cc2C(=O)N([C@@H](C)CO)C[C@@H]1C,11
CCOc1ccc(-n2c(SCC(=O)c3ccccc3)nnc2-c2ccncc2)cc1,2
COc1ccc(C(=O)NCCNc2ccc([N+](=O)[O-])cc2)cc1,-15
COc1ccc(NC(=O)CSc2nccc(=O)[nH]2)cc1Cl,-14
C[C@H]1CN([C@@H](C)CO)C(=O)Cc2cc(NS(=O)(=O)c3ccccc3)ccc2O[C@@H]1CN(C)C,1
C[C@@H]1CN([C@@H](C)CO)C(=O)Cc2cc(NC(=O)Cc3cn(C)c4ccccc34)ccc2O[C@@H]1CN(C)Cc1ccc(Cl)c(Cl)c1,107*
Cc1c(NC(=O)CSc2n[nH]c(-c3ccccc3)n2)c(=O)n(-c2ccccc2)n1C,-25
C[C@@H]1CN([C@@H](C)CO)C(=O)c2cccc(NC(=O)Nc3ccc4c(c3)OCO4)c2O[C@@H]1CN(C)Cc1ccc(C(F)(F)F)cc1,82*
C[C@@H]1CN([C@@H](C)CO)C(=O)Cc2cc(NC(=O)NC3CCCCC3)ccc2O[C@@H]1CN(C)S(=O)(=O)c1cccs1,19
C[C@@H]1CN([C@H](C)CO)C(=O)Cc2cc(NC(=O)C3CCCCC3)ccc2O[C@@H]1CN(C)S(=O)(=O)c1ccc(F)cc1,-4
Cc1c(O)c(-c2ccccc2)c(=O)n(-c2ccccn2)c1-c1ccccc1,12
CCN(CC(=O)Nc1cccc(OC)c1)S(=O)(=O)c1ccc(C)cc1,-15
CCn1c(SCC(=O)c2ccc(OC)cc2)nnc1-c1cc2cccc(OC)c2o1,12
C[C@H](CO)N1C[C@H](C)[C@@H](CN(C)C(=O)Nc2cccc3ccccc23)Oc2ccc(NS(=O)(=O)c3ccccc3)cc2C1=O,8
CC(C)NC(=O)N(C)C[C@@H]1Oc2ccc(NS(=O)(=O)c3ccc(F)cc3)cc2C(=O)N([C@H](C)CO)C[C@@H]1C,0
C[C@H]1CN([C@@H](C)CO)C(=O)c2cc(NC(=O)c3ccncc3)ccc2O[C@@H]1CN(C)CC1CCCCC1,25
COc1ccc(S(=O)(=O)Nc2cccc3c2O[C@@H](CN(C)Cc2ccc(C(=O)Nc4ccccc4N)cc2)[C@@H](C)CN([C@@H](C)CO)C3=O)cc1,112*
C[C@@H]1CN([C@H](C)CO)C(=O)Cc2cc(NC(=O)C3CC3)ccc2O[C@H]1CN(C)C(=O)Nc1ccccc1,14
Cc1noc(C)c1S(=O)(=O)Nc1ccc2c(c1)C(=O)N([C@H](C)CO)C[C@H](C)[C@H](CN(C)C)O2,15
COc1ccc(NC(=O)N(C)C[C@@H]2Oc3c(NS(=O)(=O)c4cn(C)cn4)cccc3C(=O)N([C@H](C)CO)C[C@@H]2C)cc1,13
COC(=O)c1cc(Br)ccc1NC(=O)COc1ccc(C(C)(C)C)cc1,40
Cc1ccc2oc(-c3cc(NC(=O)COc4ccccc4)ccc3Cl)nc2c1,22
O=C1c2ccccc2C(=O)N1CCCc1nc(-c2ccccn2)no1,16
CC1CN(c2ccc(NC(=S)NCc3ccco3)cc2)CC(C)O1 (stereo unspecified),18
Cc1cc(NS(=O)(=O)c2ccc(NC(=O)C3COc4ccccc4O3)cc2)nc(C)n1 (stereo unspecified),-3
O=S(=O)(Cc1ccccc1)c1ccc(C(F)(F)F)cn1,-4
C[C@@H]1CN([C@@H](C)CO)C(=O)c2cccc(NC(=O)CCCCCC(=O)Nc3ccccc3N)c2O[C@@H]1CN(C)Cc1ccc(Cl)c(Cl)c1,126*
Cn1cc(S(=O)(=O)Nc2ccc(Oc3c(Cl)cccc3Cl)nc2)cn1,-2
COc1ccc(S(=O)(=O)N(C)C[C@H]2Oc3ccc(NS(=O)(=O)c4ccccc4)cc3C(=O)N([C@@H](C)CO)C[C@H]2C)cc1,13
C[C@H](CO)N1C[C@H](C)[C@H](CN(C)Cc2ccc(C(=O)O)cc2)Oc2ccc(NC(=O)Cc3ccccc3)cc2C1=O,1
CCNc1nc(Oc2ccc(=O)[nH]n2)nc(SC)n1,-1
FC(F)(F)c1cc(-c2cn3ccccc3n2)cc(C(F)(F)F)c1,16
CNC[C@@H]1Oc2c(NC(=O)c3cnccn3)cccc2C(=O)N([C@H](C)CO)C[C@@H]1C,-16
CN(CC(=O)Nc1ccc2c(c1)OCCO2)S(=O)(=O)c1cc(Cl)ccc1Cl,6
OC(c1nc2ccccc2[nH]1)C(O)C(O)C(O)c1nc2ccccc2[nH]1 (stereo unspecified),-2
CC(=O)O[C@@H]1[C@@H](OC(=O)/C=C/c2ccccc2)[C@@H](OC(C)=O)[C@H](O[C@H]2[C@@H]3C=CO[C@@H](O[C@@H]4O[C@H](CO)[C@@H](O)[C@H](O)[C@H]4O)[C@@H]3[C@@]3(CO)O[C@@H]23)O[C@H]1C,21
Cc1cc(C)c2oc(-c3cccc(NC(=O)COc4ccccc4Cl)c3C)nc2c1,25
Cc1cc(C(=O)Nc2cccc3c2O[C@H](CN(C)Cc2ccc(Oc4ccccc4)cc2)[C@H](C)CN([C@H](C)CO)C3=O)n(C)n1,19
C[C@H](CO)N1C[C@H](C)[C@H](CN(C)C)Oc2c(NS(=O)(=O)c3ccccc3)cccc2C1=O,3
CNC[C@@H]1Oc2ccc(NC(=O)Cc3ccccc3)cc2C(=O)N([C@@H](C)CO)C[C@H]1C,18
C[C@H](CO)N1C[C@H](C)[C@@H](CN(C)C(=O)Nc2cccc3ccccc23)Oc2ccc(NC(=O)NC3CCCCC3)cc2C1=O,35
COc1ccc(S(=O)(=O)N(C)C[C@H]2Oc3ccc(NC(=O)Nc4c(C)noc4C)cc3CC(=O)N([C@H](C)CO)C[C@H]2C)cc1,16

# Further records follow.
compound,NOMO-1 viab
COc1ccc(NC(=O)Nc2cccc3c2O[C@@H](CN(C)Cc2ccc(C(=O)Nc4ccccc4N)cc2)[C@H](C)CN([C@H](C)CO)C3=O)cc1,125*
C[C@@H]1CN([C@H](C)CO)C(=O)Cc2cc(NS(=O)(=O)c3ccc(Cl)cc3)ccc2O[C@@H]1CN(C)C(=O)Nc1ccc(F)cc1,5
C[C@@H]1CN([C@H](C)CO)C(=O)c2cc(NC(=O)CCC(F)(F)F)ccc2O[C@@H]1CN(C)Cc1ccc2c(c1)OCO2,-3
C[C@@H]1CN([C@@H](C)CO)C(=O)c2cccc(N(C)C)c2O[C@H]1CN(C)C(=O)Nc1ccc(C(F)(F)F)cc1,6
Cc1ccc(S(=O)(=O)Nc2ccc3c(c2)CC(=O)N([C@H](C)CO)C[C@@H](C)[C@H](CN(C)C(=O)NC2CCCCC2)O3)cc1,2
COc1ccc(N(C(C)C(=O)Nc2ccc(Cl)c(Cl)c2)S(C)(=O)=O)cc1 (stereo unspecified),3
C[C@H](CO)N1C[C@H](C)[C@H](CN(C)Cc2ccc(-c3ccccc3)cc2)Oc2ccc(NS(=O)(=O)c3ccc(Cl)cc3)cc2C1=O,114*
CC(C)NC(=O)Nc1ccc2c(c1)C(=O)N([C@@H](C)CO)C[C@H](C)[C@@H](CN(C)Cc1ccc(-c3ccccc3)cc1)O2,-1
Cc1cccc(C)c1OCc1nnc(CCc2ccccc2)o1,7
C[C@@H]1CN([C@H](C)CO)C(=O)c2cc(NS(=O)(=O)c3cccs3)ccc2O[C@H]1CN(C)Cc1ccccc1,14
COc1ccc(S(=O)(=O)Nc2ccc3c(c2)CC(=O)N([C@H](C)CO)C[C@@H](C)[C@H](CN(C)Cc2ccc(C(F)(F)F)cc2)O3)cc1,?
C[C@@H]1CN([C@@H](C)CO)C(=O)c2cc(NC(=O)Cn3cnnn3)ccc2O[C@H]1CN(C)S(=O)(=O)c1cccs1,0
NC(=O)CSc1oc(-c2ccc(F)cc2)nc1S(=O)(=O)c1ccc(Cl)cc1,23
CCOc1ccc(N2C(=O)CC(Sc3nc(O)c(CC)c(=O)[nH]3)C2=O)cc1 (stereo unspecified),16
Cc1noc(C)c1S(=O)(=O)N(C)C[C@H]1Oc2ccc(NC(=O)Nc3ccc(F)cc3)cc2CC(=O)N([C@H](C)CO)C[C@H]1C,-10

# Part of the list above in order of molar mass, descending:
compound,NOMO-1 viab
COc1ccc(S(=O)(=O)Nc2ccc3c(c2)CC(=O)N([C@H](C)CO)C[C@@H](C)[C@H](CN(C)Cc2ccc(C(F)(F)F)cc2)O3)cc1,?
COc1ccc(N(C(C)C(=O)Nc2ccc(Cl)c(Cl)c2)S(C)(=O)=O)cc1 (stereo unspecified),3
CCOc1ccc(N2C(=O)CC(Sc3nc(O)c(CC)c(=O)[nH]3)C2=O)cc1 (stereo unspecified),16
Cc1cccc(C)c1OCc1nnc(CCc2ccccc2)o1,7

# Continuation:
compound,NOMO-1 viab
COc1ccc(S(=O)(=O)Nc2cccc3c2O[C@H](CN(C)CC2CC2)[C@@H](C)CN([C@@H](C)CO)C3=O)cc1,9
COc1cc(O)c(C)c(O)c1,12
C[C@@H]1CN([C@@H](C)CO)C(=O)c2cc(NC(=O)Nc3ccccc3)ccc2O[C@@H]1CN(C)C(=O)Nc1ccc(C(F)(F)F)cc1,102*
C[C@@H]1CCCCO[C@@H](CN(C)Cc2ccccc2)[C@@H](C)CN([C@H](C)CO)C(=O)c2cc(NC(=O)Nc3ccc4c(c3)OCO4)ccc2O1,10
COc1ccc(Cl)cc1NC(=S)NCCCn1nc(C)c(Br)c1C,1
Cc1ccc(C)c(NC(=O)CCn2cnc3ccccc3c2=O)c1,1
CC(C)(C)c1cc(C(C)(C)C)c2oc(C(=O)O)cc(=O)c2c1,-7
COC(=O)c1cc(-c2ccccc2)sc1NC(=O)c1cc(-c2cccnc2)nc2ccccc12,30
C[C@@H]1CN([C@H](C)CO)C(=O)c2cccc(NC(=O)c3cnccn3)c2O[C@H]1CN(C)S(=O)(=O)c1cccs1,1
COc1ccc(S(=O)(=O)Nc2cccc3c2O[C@@H](CN(C)S(=O)(=O)c2ccc(F)cc2)[C@@H](C)CN([C@H](C)CO)C3=O)cc1,5
Cc1noc(C)c1NC(=O)Nc1ccc2c(c1)C(=O)N([C@H](C)CO)C[C@@H](C)[C@H](CN(C)CC1CCCCC1)O2,15
COc1ccc(C)cc1NC(=O)CNS(=O)(=O)c1c(C)cc(C)cc1C,6
C[C@@H]1CN([C@H](C)CO)C(=O)c2cccc(NS(=O)(=O)c3cccs3)c2O[C@H]1CN(C)C(=O)NC1CCCCC1,13
CNC[C@@H]1Oc2ccc(NC(=O)C3CCCCC3)cc2CC(=O)N([C@H](C)CO)C[C@H]1C,-7
CC(Oc1ccc(Br)cc1)C(=O)NCCN1CCOCC1 (stereo unspecified),-3
Cc1ccc(/C=N/N(C)S(=O)(=O)c2ccc(C)cc2)cc1,?

# Screening data deposited in PubChem by Broad Institute.
